HPGD inh – inhibitors of human 15-hydroxyprostaglandin dehydrogenase (HPGD). purified HPGD, NADH fluorescence kinetic, PGE2 substrate. Potency, µM, inactives show at the top dose activity change, negative = inhibition, hits mostly inhibitors. 4.3% of 150,000 active. AID 894; active = well fitted inhibition curve with a large enough effect (not every such curve was filed as active); inconclusive = small, poorly fitted or top-dose-only effect, or another doubt; inactive = no such curve, though single readings can be large or run the other way;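 note: top concentration of the series not given in the record; plate controls included wells without enzyme; inactives centre near -10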
Target sequence (P15428 whole entry, looked up): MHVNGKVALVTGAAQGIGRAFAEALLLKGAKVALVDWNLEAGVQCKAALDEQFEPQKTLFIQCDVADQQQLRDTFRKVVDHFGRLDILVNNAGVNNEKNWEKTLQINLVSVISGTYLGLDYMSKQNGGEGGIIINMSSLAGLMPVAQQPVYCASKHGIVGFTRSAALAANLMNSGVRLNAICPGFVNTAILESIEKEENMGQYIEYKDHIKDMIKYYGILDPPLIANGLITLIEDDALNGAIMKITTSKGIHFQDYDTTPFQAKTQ
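NADH formation kinetics: reaction with 30 uM PGE2 and 1 mM NAD+ (final), 20 nM enzyme, Tris-HCl pH 8 with Tween 20, after 15 min compound preincubation at room temperature. Fluorescence change, last versus first of five reads.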
Active calls of the source: *; u = inconclusive. % is set by controls: 0 for no effect and ±100 for the full control effect; potency is the fitted concentration of half-maximal effect.

No.	HPGD inh	Compound
1	4.2%	Cc1cccc(C(=O)N2CCN(C(=O)c3cccc(C)c3)C(C)C2)c1 (stereo not drawn)
2	-10.8%	COc1ccccc1C(=O)N(Cc1ccco1)C1CCS(=O)(=O)C1 (stereo not drawn)
3	-16.9%	COc1ccccc1CNC(=O)/C=C/c1cc2c(cc1Br)OCO2
4	u	O=C(NCCO)c1ccc2c(c1)S(=O)(=O)c1ccccc1C2=O
5	u	CC(C)(C)c1ccc(C(=O)NC(=S)NCc2cccnc2)cc1
6	-11.5%	N=C(N)SCCc1ccc(OCc2ccc([N+](=O)[O-])cc2)cc1
7	-9.9%	COc1cccc(C(=O)/C=C/Nc2cccc(O)c2)c1
8	-2.0%	CSCC[C@H](NC(=O)OC(C)(C)C)C(=O)N1CCC(C(=O)N[C@H](C(=O)O)C(C)C)CC1
9	-23.8%	OCCSc1nnc(Nc2ccccc2)s1
10	-3.5%	CCCCc1nnc(NC(=O)CSc2nc(=O)cc(N)n2-c2ccccc2)s1
11	u	Cn1c2ccccc2c2cc(C(=O)N3CCOCC3)sc21
12	-18.8%	COC(=O)CSC1=C(C#N)C(c2ccsc2)CC(=O)N1 (stereo not drawn)
13	-12.7%	O=C(CCN1C(=O)COc2ccccc21)NCCC1=CCCCC1
14	u	CC(NC(=O)Cc1cccs1)c1ccc2c(c1)OCO2 (stereo not drawn)
15	-11.8%	COc1ccccc1/C=N/NC(=O)CC(=O)Nc1ccc(Cl)c(Cl)c1
16	-3.7%	O=C(OCC(=O)c1cccs1)c1cccc(C(=O)OCC(=O)c2cccs2)n1
17	-24.0%	CC(=O)c1ccc(NC(=O)COC(=O)c2ccccc2N=Nc2ccc(N(C)C)cc2)cc1
18	-6.1%	N#CCC(=O)NCC1(c2ccccc2)CCCC1
19	-20.9%	O=C(C1=C(c2ccccc2)C(=O)c2ccccc2C1=O)c1ccccc1
20	u	Cc1ccc(S(=O)(=O)/C(C#N)=C/c2ccccc2OCc2ccccc2)cc1
21	u	O=C(COC(=O)c1ccccc1NC(=O)c1ccco1)NCc1ccc2c(c1)OCO2
22	-9.2%	COC(=O)c1sccc1NC(=O)C1CC2CCC1C2 (stereo not drawn)
23	-14.4%	N#Cc1ncc(C(F)(F)F)cc1Sc1ccccc1N
24	-13.8%	O=C1COc2ccc(-c3csc(NCC4CCCO4)n3)cc2N1 (stereo not drawn)
25	-20.9%	CCSc1cc(N2CCCC2)nc(-c2cccc(C)c2)n1
26	-9.5%	Cc1ccc(C(=O)/C=C/Nc2cccc([N+](=O)[O-])c2)o1
27	-6.7%	Cc1c(/C=N/NC(=O)c2cccnc2)c2ccccn2c1C(=O)c1ccc(F)cc1
28	-0.7%	N#CNC(=Nc1cccc(F)c1)SCc1ccccc1
29	-23.0%	COc1ccc(CCNC(=O)Cc2cc(OCc3ccccc3)c(OC)cc2[N+](=O)[O-])cc1OC
30	-22.3%	Cc1cc(=O)[nH]c(SCc2nnc(-c3ccccc3)o2)n1
31	-9.9%	COCCn1c(SCC(=O)N2CCCc3ccccc32)nc2cccnc21
32	-1.7%	CCCN1C(=O)C(Cc2nc3ccccc3c(=O)n2-c2ccccc2)c2ccccc21 (stereo not drawn)
33	-1.2%	CCc1nc(N[C@@H](Cc2c[nH]c3ccccc23)C(=O)O)c2oc3ccccc3c2n1
34	-9.0%	O=C1c2ccccc2C(=O)N1CCSc1ccccc1
35	-16.2%	COc1ccccc1OCc1csc(NC(=O)c2ccco2)n1
36	-8.2%	Cc1cc(OC(=O)c2ccc(Cl)cc2)cc(=O)n1C
37	-2.8%	O=C(Cn1nnc(-c2ccc(CN3CCOCC3)cc2)n1)Nc1nc(-c2ccccc2)cs1
38	-5.2%	Cn1c(/C(C#N)=C(\O)CN2CCN(Cc3ccccc3)CC2)nc2ccccc21
39	0.4%	CCc1ccc(OCCOCC(O)CNC(C)CC)cc1 (stereo not drawn)
40	-3.2%	ON1C(c2ccccc2)CC2(O)c3nonc3CCC12 (stereo not drawn)

A draw from above in order of heavy-atom count, ascending.
No.	HPGD inh	Compound
23	-14.4%	N#Cc1ncc(C(F)(F)F)cc1Sc1ccccc1N
30	-22.3%	Cc1cc(=O)[nH]c(SCc2nnc(-c3ccccc3)o2)n1
24	-13.8%	O=C1COc2ccc(-c3csc(NCC4CCCO4)n3)cc2N1 (stereo not drawn)
32	-1.7%	CCCN1C(=O)C(Cc2nc3ccccc3c(=O)n2-c2ccccc2)c2ccccc21 (stereo not drawn)
37	-2.8%	O=C(Cn1nnc(-c2ccc(CN3CCOCC3)cc2)n1)Nc1nc(-c2ccccc2)cs1

(next part)
No.	HPGD inh	Compound
41	-11.8%	Cc1cccc(C)c1NC(=O)CSc1nc(COc2ccccc2)nc2ccccc12
42	-12.8%	CC(=O)C1=C(O)C(=O)N(CCNCCO)C1c1ccccc1 (stereo not drawn)
43	-16.3%	C#CCOC(=O)CCC(=O)NCCc1ccccc1
44	-3.5%	Cc1cc(C(=O)NNC(=O)c2ccc(S(=O)(=O)N(C)C)cc2)c(C)o1
45	39.8µM*	O=C1CC(c2ccc3c(c2)OCO3)c2cc(O)ccc2O1 (stereo not drawn)
46	0.1%	COc1ccccc1NC(=O)C1=C(C)Nc2nc(CCCO)nn2C1c1cccnc1 (stereo not drawn)
47	-12.0%	COc1ccc(Oc2c(Cl)cnn(-c3ccc(Cl)c(Cl)c3)c2=O)cc1
48	-12.2%	COc1ccccc1C(=O)N/C(=C/c1ccc(Br)cc1)C(=O)NCC(=O)O
49	-1.4%	Cc1ccc(NC(=O)c2ccc3c(c2)N(CC(=O)N2CCCCC2)C(=O)C(C)(C)O3)cc1
50	3.7%	COc1ccc(CNC(=O)CN(CC2CCCO2)C(=O)CNS(=O)(=O)c2ccc(F)cc2)cc1 (stereo not drawn)
51	3.0%	COc1cccc(NC(=O)COc2c(F)c(F)c(C(F)(F)F)c(F)c2F)c1
52	10µM*	NC(=O)/N=N/C(N)=O
53	4.6%	O=C(Nc1c(F)cc(F)cc1Br)c1ccco1
54	-8.5%	O=C(/C=N\O)NCCCNCc1ccccc1
55	-16.5%	COc1ccc(/C=C2\CC/C(=C\c3ccc(OC)c(OC)c3)C2=O)cc1OC
56	-13.3%	CC12CCC(C(=O)NCc3ccc4c(c3)OCO4)(C(=O)C1=O)C2(C)C (stereo not drawn)
57	u	COC(=O)c1[nH]c2cccc(OC)c2c1NC(=O)CCN1CCC(C(N)=O)CC1
58	-6.5%	CN=c1sc2ccccc2n1CC(O)COCc1ccco1 (stereo not drawn)
59	-24.1%	Cc1cccc(NC(=O)CN2C(=O)N/C(=C/c3ccc(C)o3)C2=O)c1
60	u	CCCCn1c(-c2ccccc2)nc2c(=O)n(C)c(=O)[nH]c21
61	-14.3%	c1ccc(NC2=NCCCCS2)cc1
62	-23.6%	COc1cccc(NC(=O)CSC(N)=O)c1
63	-6.9%	CN1CCN(CCCC(=O)c2ccc(C3CCCC3)cc2)CC1
64	0.2%	CC(C)CC(=O)N1CC(C)N(C(=O)CC(C)C)CC1C (stereo not drawn)
65	-10.7%	CCN1CCN(C(c2ccccn2)c2c(NC(=O)c3ccccc3)sc(C)c2C)CC1 (stereo not drawn)
66	-6.7%	CCOC(=O)CC1=CSC2=NS(=O)(=O)CCN12
67	-14.3%	COc1cccc(OCCCCCN2CCOCC2)c1
68	-18.8%	Cc1ccc2nc(SCC(=O)N3CCCC3)[nH]c2c1
69	1.3%	COC(=O)NCC(c1ccco1)N1CCN(c2ccc(F)cc2)CC1 (stereo not drawn)
70	-9.5%	CCOc1c(/C=C(\C#N)C(N)=O)c2ccccc2n1CC
71	-9.5%	O=S(=O)(Cc1ccccc1)/C1=C(\N2CCOCC2)CCCCCC1
72	-4.3%	O=C(CNC(=O)c1ccco1)OCC(=O)c1ccc2c(c1)CCCC2
73	-5.1%	Cc1cc(C)c2nc(NC(=O)c3cc(C)on3)sc2c1
74	u	COc1ccc(C2Nc3ccccc3C(=O)N2Cc2ccco2)cc1COc1ccc(F)cc1 (stereo not drawn)
75	-10.3%	Clc1ccc2ncc(-c3nnnn3-c3ccccc3)c(-c3ccccc3)c2c1
76	-3.9%	COc1cccc(CSc2nnc(C(F)(F)F)n2Cc2ccc(F)cc2)c1
77	-7.0%	COc1ccc(-c2noc(CSc3nc4sc(C)c(C)c4c(=O)n3-c3ccccc3)n2)cc1OC
78	-11.1%	COc1ccccc1NC(=O)CSc1nnc(C2CCCCC2)o1
79	14.1µM*	CC(C)C(CC(=O)NCc1ccco1)c1ccco1 (stereo not drawn)
80	u	CCN(Cc1ccccc1)c1ccc(/C=N/NC(=O)c2cccc(S(=O)(=O)N3CCOCC3)c2)cc1

Records 79–80 of the list above:
No.	HPGD inh	Compound
79	14.1µM*	CC(C)C(CC(=O)NCc1ccco1)c1ccco1 (stereo not drawn)
80	u	CCN(Cc1ccccc1)c1ccc(/C=N/NC(=O)c2cccc(S(=O)(=O)N3CCOCC3)c2)cc1

(continued)
No.	HPGD inh	Compound
81	u	Cc1nc2cc3ccccc3cc2c(=O)[nH]1
82	-1.6%	CN(CCOC(=O)c1ccccc1)Cc1ccccc1
83	u	O=C(CCc1ccccc1)Nc1cccc(-c2nnc(-c3ccco3)o2)c1
84	-9.1%	COCCn1c(C)cc(C(=O)COC(=O)CCc2ccc(S(=O)(=O)N3CCOCC3)cc2)c1C
85	-6.1%	COc1ccc(-n2nc(C(=O)Nc3nc4ccc(OC)cc4s3)c3ccccc3c2=O)c(OC)c1
86	u	CC1(CCc2ccc3c(c2)OCO3)NC(=O)c2ccccc2N1 (stereo not drawn)
87	u	Cc1cccc(Cc2cnc(NC(=O)c3ccc(C)o3)s2)c1
88	-1.4%	CC(=O)COC(=O)c1cccc(N2C(=O)C3C4C=CC(C4)C3C2=O)c1 (stereo not drawn)
89	-9.7%	COC(=O)c1scc(C)c1NC(=O)Cc1ccccc1
90	-0.6%	O=C1C[C@H]2OCC=C3CN4CC[C@@]5(C(=O)O)[C@H](N1)C2[C@H]3C[C@H]45 (stereo partly drawn)
91	-7.7%	COc1ccc(O)c(C2NC(CC(C)C)(C(=O)O)C3C(=O)N(Cc4ccccc4)C(=O)C23)c1 (stereo not drawn)
92	7.94µM*	CCN(CC)C(=O)c1cc2sc3ccccc3c2s1
93	-7.0%	O=C(Nc1cccc(C(F)(F)F)c1)c1cccnc1
94	-8.2%	O=C(Nc1ccccc1C(F)(F)F)NC1CCCCCCC1
95	0.6%	CCCc1cc2c(cc1NC(=O)c1ccccc1Cl)OCO2
96	-2.7%	CSCC[C@H](C=O)NC(=O)[C@H](CC(C)C)NC(=O)[C@H](CC(C)C)NC(C)=O
97	-4.7%	NC(=O)C(=O)O
98	-6.3%	Cc1ccc(NC(=O)C2C3C=CC4(CN(Cc5cccnc5)C(=O)C24)O3)cc1F (stereo not drawn)
99	3.5%	CC1CCc2c(sc3ncnc(N4CCOCC4)c23)C1 (stereo not drawn)
100	-3.9%	CCCNC(=O)CN(C1CCCCC1)S(C)(=O)=O
101	-22.4%	CNc1nnc(CSc2nc3ccccc3s2)s1
102	-19.0%	COC1(c2cc(-c3ccccc3)nc(N)n2)CCCCC1
103	u	O=C(/C=C/c1c(F)cccc1Cl)Nc1ncccn1
104	1.2%	CCCCC(CC)C(=O)Nc1ccccc1C(=O)NC(C)C (stereo not drawn)
105	-14.6%	O=C(NC1CC1)C1=COCCO1
106	-9.9%	C=CCc1cccc2cc(C(=O)N3CCN(C(=O)OCC)CC3)c(=O)oc12
107	-19.6%	CCCCC1CC(C)(C(=O)CSc2nc3ccccc3s2)OC1=O (stereo not drawn)
108	-1.4%	CC1=C(C(=O)NCc2ccc3c(c2)OCO3)C2(CCC(C)CC2)OC1=O (stereo not drawn)
109	-6.6%	Cc1nc(SCC(=O)c2ccc(F)cc2)c([N+](=O)[O-])[nH]1
110	-9.9%	Cc1nn(C)c(C)c1C1C(C#N)=C(N)OC2=C1C(=O)CC(C)(C)C2 (stereo not drawn)
111	-14.1%	O=C(CCC(=O)OCc1ccc(Cl)cc1)Nc1cccc([N+](=O)[O-])c1
112	-22.3%	O=c1ccc2c(o1)/C(=C/C=C(Cl)Cl)CCC2
113	-4.1%	Cc1cc2nc(NC3=NCN(Cc4ccc5c(c4)OCO5)CN3)nc(C)c2cc1C
114	-0.5%	O=C(O)CC1=C(O)C(=O)N(c2ccccc2)C1c1ccc(Br)cc1 (stereo not drawn)
115	u	Cc1cc(=O)oc2cc(OCc3nnc(-c4ccccc4Br)o3)ccc12
116	0.447µM*	O=C(NCC1CCCO1)c1sc(=S)n2c1[nH]c(=O)c1ccc(C(=O)N3CCCCC3)cc12 (stereo not drawn)
117	0.794µM*	O=C(CSc1n[nH]c(-c2ccccc2)n1)Nc1ncc(Br)cc1Br
118	-5.4%	O=C(NC1=NCCS1)[C@H](Cc1ccccc1)N1C(=O)c2ccccc2C1=O
119	-4.8%	CC(C)OC(=O)NCCOC(=O)Nc1cccc(Cl)c1
120	-16.1%	COc1ccccc1Nc1nc2nonc2nc1N1CCCCC1C (stereo not drawn)
121	-3.7%	O=C(NCCCO)c1ccc2[nH]c3c(c2c1)CCCC3
122	-15.2%	C[C@H](NS(=O)(=O)c1ccc(Cl)c(Cl)c1)C(=O)OCc1cc(=O)n2cc(Br)ccc2n1
123	-2.0%	Cc1ccc(/C=C2/SC(=S)N(CCC(=O)N3CCN(c4ccccc4)CC3)C2=O)cc1
124	-8.4%	COC(=O)N[C@H](C[N+](=O)[O-])c1cccc(C)c1
125	-7.9%	CN(Cc1nc2ccccc2c(=O)[nH]1)c1ccccc1

Compounds listed so far that have a tert-butyl group, in the order listed:
No.	HPGD inh	Compound
5	u	CC(C)(C)c1ccc(C(=O)NC(=S)NCc2cccnc2)cc1
8	-2.0%	CSCC[C@H](NC(=O)OC(C)(C)C)C(=O)N1CCC(C(=O)N[C@H](C(=O)O)C(C)C)CC1

Bioassay records: PubChem, National Center for Advancing Translational Sciences (NCATS)

This is a subset; count on the stated rates, not on these rows.
